TRPML1 agonist: agonists of human TRPML1 channel; AID 624414; 0.12% of 410,000 active; TRPML1-expressing cells, Ca2+ dye fluorescence, FDSS; host cell line not named in the record; reference of the full effect not given here; activation, % (no concentration beside the values); in the data active = activation above about 50%; inconclusive = about 30% to 50%; inactive = below about 30%; further: 0% is about no effect; the text of the record puts the active cut at 80%
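Tet-induced TRPML1-DL cells, 1,500 per well, cultured overnight, were loaded with a no-wash Ca2+ dye for 45–90 min. Calcium fluorescence was recorded on the FDSS for 110 s after compound addition, before the EC80 agonist (4 uM 54-4) was added.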
D2 agonist: human D2 receptor agonism in beta-arrestin assay; activation, % (test concentration not listed); 0.084% of 360,000 active; DiscoveRx PathHunter D2 beta-arrestin, luminescence, 90 min; 100% = 57 uM dopamine signal; P14416; AID 624465; in the data active = activation above about 40%; inconclusive = about 15% to 40%; inactive = below about 15%; further: compound concentration not given in the record; the text of the record calls up to 30% inactive
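DiscoveRx PathHunter D2 beta-arrestin cells (2,100/well) attached overnight, then compound-stimulated 90 min at 37 C in HBSS/10 mM HEPES/0.1% Tween-20 buffer; beta-galactosidase complementation read by luminescence after 1 h at ambient temperature. Dopamine 57 uM final (EC100) as control.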
CtBP-E1A blk: CtBP/E1A binding inhibition | AlphaScreen GST-E1A/His-CtBP binding, 1536-well; stronger effect = lower value; control for the full effect not named in the record | activity change, % (concentration not given with the values) | 0.49% of 340,000 active | AID 651724; in the data active means activity change below about -65%; inconclusive means about -30% to -65%; inactive means above about -30%; further: on the % scale 0 is the no-effect control and ±100 the full control effect
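AlphaScreen with 125 nM GST-E1A and 125 nM His-CtBP (5X stocks) in Tris pH 8.0, 300 mM NaCl, BSA, Tween 20, TCEP. Compounds preincubated 2 h at 37 deg C, then glutathione donor/nickel acceptor beads added for 1 h at 37 deg C in dark.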
D2 potentiator: positive allosteric modulators of human D2 dopamine receptor. P14416. DiscoveRx D2 beta-arrestin cells, luminescence, 90 min; 100% = 57 uM dopamine signal. potentiation, % (concentration not given with the values). 0.23% of 360,000 active; active = potentiation of 50% or more; inconclusive = 30% to 50%; inactive = 30% or less;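 further: compound concentration not given in the record; tested on top of an EC20 dose of dopamine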
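PathHunter D2 cells, attached overnight at 37 deg C, received compound in DMSO plus dopamine at EC20 (50 nM final) for 90 min at 37 deg C. Beta-arrestin recruitment was read as luminescence after 1 h with detection reagent at ambient temperature.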
Six1-Eya2 blk: Six1/Eya2 interaction inhibition; AlphaScreen GST-Six1/His-Eya2 binding, biochemical; stronger effect = lower value; control for the full effect not named in the record; 0.56% of 360,000 active; Q15475+O00167; AID 651725; activity change, % (concentration not given with the values); in the data active = activity change below about -65%; inconclusive = about -30% to -65%; inactive = above about -30%; further: on the % scale 0 is the no-effect control and ±100 the full control effect
Target sequence (O00167 whole entry, looked up): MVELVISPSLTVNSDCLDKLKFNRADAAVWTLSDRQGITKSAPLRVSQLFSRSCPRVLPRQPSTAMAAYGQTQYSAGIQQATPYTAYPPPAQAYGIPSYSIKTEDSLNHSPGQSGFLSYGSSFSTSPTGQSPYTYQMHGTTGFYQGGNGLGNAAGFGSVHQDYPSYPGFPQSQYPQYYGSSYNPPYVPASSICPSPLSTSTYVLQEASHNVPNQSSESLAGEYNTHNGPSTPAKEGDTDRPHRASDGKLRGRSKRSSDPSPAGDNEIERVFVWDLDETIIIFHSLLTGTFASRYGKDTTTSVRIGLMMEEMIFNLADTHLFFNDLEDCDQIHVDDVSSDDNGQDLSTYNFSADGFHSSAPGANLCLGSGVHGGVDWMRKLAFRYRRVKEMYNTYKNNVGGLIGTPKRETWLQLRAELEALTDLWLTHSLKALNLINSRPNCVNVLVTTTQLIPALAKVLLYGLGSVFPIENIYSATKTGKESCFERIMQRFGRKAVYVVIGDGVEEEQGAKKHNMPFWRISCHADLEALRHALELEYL
Target sequence (Q15475 whole entry, looked up): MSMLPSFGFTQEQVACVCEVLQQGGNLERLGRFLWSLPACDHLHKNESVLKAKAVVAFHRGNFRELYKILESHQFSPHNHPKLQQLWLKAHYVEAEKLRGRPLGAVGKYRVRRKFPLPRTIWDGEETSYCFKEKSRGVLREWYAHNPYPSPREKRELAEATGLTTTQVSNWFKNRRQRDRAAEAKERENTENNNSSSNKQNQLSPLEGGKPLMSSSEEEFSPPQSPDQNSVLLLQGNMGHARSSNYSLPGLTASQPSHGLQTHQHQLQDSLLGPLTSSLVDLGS
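Homogeneous AlphaScreen proximity assay pairing GST-Six1 with His-tagged Eya2 (added as 5X mix: 250 nM and 500 nM) in 50 mM Tris pH 8.0, 300 mM NaCl, 1 mM TCEP. Glutathione donor and nickel acceptor beads; 1 h, 37 °C, dark.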
PINK1 expr mod: modulators of PINK1 expression. PINK1 immunofluorescence, high-content cytometry, 24 h. 0.2% of 410,000 active. Potency, µM (highest dose often 76.6 µM), for inactives: top-dose activation (PINK1 increase), most hits filed as activators; active = well fitted activation curve with a large enough effect; inconclusive = small, poorly fitted or top-dose-only effect; inactive = flat fitted curve, though single readings scatter; cell line not stated here;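 further: potency means the concentration at half of the fitted maximal effect; % of control where 0% means no effect; nearly all actives have a fitted effect of over 65% in size; a mitochondrial uncoupler was the plate control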
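Readout is PINK1 immunofluorescence, quantified alongside mitochondrial, cell and nuclear markers by laser-scanning microplate cytometry. Cells from a stable line were exposed to compound titrations (5 concentrations) for 24 hours, with CCCP controls.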
* hit, by the source's call; ? = inconclusive; · = no result given; [ ] = another dose, or the depositor's remark.

SMILES	TRPML1 agonist	D2 agonist	CtBP-E1A blk	D2 potentiator	Six1-Eya2 blk	PINK1 expr mod
O=C(CN1CCN(S(=O)(=O)c2ccc(Br)cc2)CC1)Nc1ccc(F)cc1F	1.4	5.3	-2	-8	11	-1.9%
CCOC(=O)c1cccc(NC(=O)CCc2nnc3ccc(N4CCCCC4)nn23)c1	-0.6	-4.5	-5	4	2	4.0%
COCCN(C(=O)CSc1nnc(-c2cccs2)n1N)c1c(N)n(Cc2ccccc2)c(=O)[nH]c1=O	0.0	-0.4	3	11	1	0.0%
Cc1cccc(-n2c(SCc3cc(=O)n4ccsc4n3)nc3ccccc3c2=O)c1	0.2	-2.5	5	-14	-4	-2.6%
O=C(CSc1ccc(C(F)(F)F)cc1[N+](=O)[O-])Nc1ccc2ccccc2c1	-0.1	-0.9	1	-20	5	3.0%
CC12CCC(C(=O)NC3CCCCC3)([C@H](Br)C1=O)C2(C)C (stereo partly drawn)	-0.7	-3.8	·	-14	0	-0.2%
COC(=O)c1ccc(NC(=O)CSC2=NC(=O)C(c3ccccc3)C(=O)N2)cc1 (stereo not drawn)	-0.6	-1.8	-4	6	-7	2.2%
Cc1sc(NC(=O)C(C)C)c(C(=O)Nc2ccccc2)c1C	0.3	5.3	-3	5	-2	3.5%[38.3 µM]
Cn1cc([N+](=O)[O-])cc1-c1nc2ccccc2n1C	-1.2	1.7	·	-3	0	-1.9%
O=c1[nH]c2ccc(S(=O)(=O)N3CCCCC3)cc2o1	0.8	-1.0	3	-5	3	0.9%[38.3 µM]
CCSc1nnc(NC(=O)c2ccccc2)s1	1.5	-1.4	0	-20	-1	0.0%
CCOC(=O)[C@H]1[C@H]2COc3ccc(OC)cc3[C@@H]2N2C(=O)c3ccc(Cl)cc3NC(=O)[C@@]12C	-0.2	-3.4	-7	-15	-18	1.5%
Cc1cccc(NC2=C(NC(=O)c3ccccc3)C(=O)c3ccccc3C2=O)c1	-0.1	?	?	?	?	2.1%
O=C(c1cccc(Cl)c1)N1CCN(Cc2ccncc2)CC1	-0.2	-4.4	-1	-11	4	-0.7%
CC(=O)N1C[C@@H](CO)[C@@H](N(C)C(=O)c2ccco2)C[C@H]1c1ccccc1	-0.6	-6.7	3	-7	5	0.3%
CCOc1ccccc1CNC(=O)Cn1ccc2cc(S(=O)(=O)N3CCCC3)ccc21	0.2	1.2	1	-10	4	4.1%
O=C(c1cc2ccccc2o1)N1CCCC1	3.7	-1.2	·	1	11	-0.3%
CCOc1ccc(CNC(=O)CCc2cn(C)c3ccccc23)cc1	1.2	-5.9	-8	-6	-9	10.0%
CCC1(C)NC(=O)N(CC(=O)N2CCN(c3cccc(Cl)c3)CC2)C1=O (stereo not drawn)	0.4	4.3	·	0	-2	3.1%
CCc1cc(=O)oc2c(C)c(OCC(=O)NCCCn3ccnc3)ccc12	-0.7	0.3	1	-6	-2	0.3%
CCn1cc(CN2CCC(n3nccc3NC(=O)c3ccccc3OC)CC2)cn1	-0.8	-1.9	·	-10	20	0.5%
O=C(NNC(=O)c1ccc(F)cc1)C(=O)N1CCCCC1	0.3	5.8	14	0	0	1.8%
COc1ccc2cc3cc(C(=O)NCCc4ccc(OC)c(OC)c4)oc3nc2c1	0.9	-0.3	-19	8	-17	2.7%
CCOC(=O)c1ccc(N2C(=O)C3CCOc4ccccc4C32)cc1 (stereo not drawn)	1.0	1.7	-20	-7	-2	4.9%
CN(c1ccc(C(=O)NCc2ccncc2)cc1)S(=O)(=O)c1ccc(Cl)cc1	-0.3	-2.5	6	-25	-3	1.6%
CC1CC(C)CN(S(=O)(=O)c2ccc(C(=O)Nc3sccc3C(N)=O)cc2)C1 (stereo not drawn)	-1.0	-4.6	-2	-9	-4	-1.5%
CC(C)C(NC(=O)c1ccc(C(C)(C)C)cc1)C(=O)Nc1ccc(N2CCOCC2)cc1 (stereo not drawn)	-0.1	0.2	?	-6	-20	-0.2%
Cc1ccc(Cl)cc1-n1c(=O)cc(N2CC(C)OC(C)C2)[nH]c1=O (stereo not drawn)	0.5	-0.4	1	-6	-1	3.5%[38.3 µM]
CC(C)n1cc(CN2CCC(C(=O)Nc3cccc(-c4cscn4)c3)CC2)cn1	-0.8	-3.8	-10	-32	-2	-1.2%
O=c1c(-c2ccc(F)cc2)coc2c3c(ccc12)OCCO3	-0.4	-0.6	9	-5	5	-0.6%[38.3 µM]
C/C(=N/NC(=O)CNC(=O)/C=C/c1ccco1)c1ccc(Cl)cc1	-1.3	-2.1	10	3	0	11%
O=C(CSc1cccc(C(F)(F)F)c1)Nc1ccc(N2CCOCC2)cc1	1.1	0.2	-2	0	-7	3.2%
O=C(CN1CCC(N2CCCCC2)CC1)N1CCCc2ccccc21	-0.2	-3.2	4	-12	-2	-1.2%
O=S(=O)(/N=C(/Nc1ccccn1)c1ccc(Cl)cc1)c1ccc(Cl)cc1	1.8	-4.3	7	-7	12	7.9%
Cc1ccc(C(=O)NC2CCN(C(=O)N3CCOCC3)CC2)cc1	0.0	-1.7	1	-8	6	-1.1%
CN(C)S(=O)(=O)c1ccc(S(=O)(=O)NCCN2CCOCC2)cc1	-0.1	-3.4	11	-3	-4	2.5%
CC(C)(C)NC(=O)NC(=O)CSc1ccc(S(=O)(=O)N2CCCCC2)cn1	0.3	1.4	-6	0	0	3.9%
CC(C)(C)NC(=O)C(c1cccs1)N(Cc1cccs1)C(=O)c1ccc(CN2CCOCC2)o1 (stereo not drawn)	0.2	-4.6	-6	-3	-2	1.1%
Cc1ccc(S(=O)(=O)n2nc(OC(=O)C3CCCCC3)cc2N)cc1	1.8	-4.8	-2	6	13	-0.2%
CC(OC(=O)c1ccc(O)cc1)C(=O)Nc1nc(-c2ccccc2)cs1 (stereo not drawn)	1.8	9.3	-7	1	-8	-0.2%
Cc1cccc[n+]1CC(=O)N1c2ccccc2Sc2ccccc21	0.0	-5.4	1	5	3	4.4%
COc1ccccc1NS(=O)(=O)c1cccc(C(=O)N2CCCCCC2)c1	1.5	-6.9	0	-2	5	1.3%
CC(=O)c1ccc(OCc2cc(C(=O)N(C)Cc3ccon3)no2)cc1	0.5	4.0	0	-11	10	-3.0%
COc1ccc(N2CC(C(=O)N/N=C/c3ccc([N+](=O)[O-])cc3)CC2=O)cc1 (stereo not drawn)	0.3	5.3	-9	3	-6	-0.2%
COc1ccc(Cn2c(=O)[nH]c3cc(C(=O)NC4CCN(Cc5ccccc5)CC4)ccc32)cc1	0.5	2.4	-1	-24	-1	-1.8%

Molecules above that have a tert-butyl group (three):
SMILES	TRPML1 agonist	D2 agonist	CtBP-E1A blk	D2 potentiator	Six1-Eya2 blk	PINK1 expr mod
CC(C)C(NC(=O)c1ccc(C(C)(C)C)cc1)C(=O)Nc1ccc(N2CCOCC2)cc1 (stereo not drawn)	-0.1	0.2	?	-6	-20	-0.2%
CC(C)(C)NC(=O)NC(=O)CSc1ccc(S(=O)(=O)N2CCCCC2)cn1	0.3	1.4	-6	0	0	3.9%
CC(C)(C)NC(=O)C(c1cccs1)N(Cc1cccs1)C(=O)c1ccc(CN2CCOCC2)o1 (stereo not drawn)	0.2	-4.6	-6	-3	-2	1.1%

The list continues.
SMILES	TRPML1 agonist	D2 agonist	CtBP-E1A blk	D2 potentiator	Six1-Eya2 blk	PINK1 expr mod
CC1CC(O)(Cc2ccccc2)C(C)CN1C (stereo not drawn)	-0.5	-0.8	8	-5	4	-0.6%
O=C(CNS(=O)(=O)c1ccccc1)OCc1cccc([N+](=O)[O-])c1	-0.7	-0.7	-7	-21	-2	2.4%
COc1ccccc1C(=O)N1CCN=C1SCc1cccnc1	2.0	-3.0	5	-4	2	1.5%
OCCC1CN(Cc2nc3ccccc3s2)CCN1C1CCCCC1 (stereo not drawn)	0.0	-2.0	·	-13	7	-1.9%
CCCC(=O)Nc1ccc(C)c(O)c1	-0.7	-1.7	0	5	8	0.2%
COc1ccc(Nc2nc(NCCO)nc(OC)n2)cc1	1.5	-0.3	-10	-5	-4	-0.2%
CC1=NNC(=O)C1CCC(=O)N/N=C\c1cccc(Cl)c1 (stereo not drawn)	0.2	3.8	0	6	-6	-0.7%
Oc1ccc(C[C@H]2CNCCN2CCC23CC4CC(CC(C4)C2)C3)cc1	-0.3	-7.6	-15	-15	-10	-1.0%
Oc1cccc2cnccc12	·	4.2	-1	1	3	-1.0%
CCC1CCCCN1C(=O)COC(=O)c1ccc(Br)o1 (stereo not drawn)	0.1	-3.0	4	1	6	1.0%
COc1ccccc1Nc1ccc([N+](=O)[O-])cn1	1.6	-2.5	19	-6	25	-3.7%
COc1ccc(C(=O)CSc2nnnn2C)c(OC)c1	0.6	-4.0	2	-1	7	-0.4%
CCCCC(=O)NC(Nc1ccc(C)cn1)(C(=O)OCC)C(F)(F)F (stereo not drawn)	-0.8	-2.2	12	13	0	-1.8%
CCc1nn(CC(=O)N(C)C2CCCCC2)c(=O)c2cc3cc(C)ccc3n12	0.9	4.0	3	-4	0	1.9%
N#CCn1c(C2CCCCC2)nc2ccccc2c1=O	0.2	0.9	7	6	5	0.4%
O=C(O)c1cccc(Nc2ncnc3ccccc23)c1	0.5	-0.1	10	-4	4	1.1%[38.3 µM]
C=CCN(CC=C)CCOc1ccccc1F	1.5	-1.0	2	-3	3	0.6%
c1ccc(CN2CCC(CNc3ncnc4ccccc34)C2)cc1 (stereo not drawn)	0.0	-3.2	0	-19	4	-3.6%
CC1C(=O)N(Cc2cn(Cc3ccco3)nn2)CCS(=O)(=O)N1Cc1ccc(-c2ccccc2C(F)(F)F)cc1 (stereo not drawn)	1.4	-4.9	-5	-5	-9	2.4%
Cc1cccc(N(Cc2ccccc2)C(=O)c2ccc(S(C)(=O)=O)cc2)c1	0.3	-0.8	-3	-6	7	-2.0%
Cc1ccc(C)n1-c1nccc(-c2cccs2)n1	0.6	-3.5	-2	-2	-13	6.0%
Cc1cc[n+](CC(=O)Nc2ccccc2)cc1	-0.2	-4.6	-6	-2	-3	-0.2%
Cc1ccc(N(CC(=O)NCc2ccccc2)C(=O)CCC(=O)Nc2ccccn2)cc1	0.7	-4.3	7	-2	7	0.6%
O=C(CN1CCN(Cc2ccc(F)cc2)CC1)Nc1ccccc1F	0.8	-1.1	·	-17	6	0.5%
CCOc1ccc(-c2csc(NC(=O)CSC3=NC(=O)CN3C(C)=O)n2)c2ccccc12	0.1	-7.3	-1	-6	-2	7.3%
NC(=O)C1CCN(C(=O)NC2CC(=O)N(c3ccc4c(c3)OCCO4)C2)CC1 (stereo not drawn)	0.9	-8.8	-3	-31	-9	1.7%
CCOC(=O)C1(Cc2cccc(Cl)c2)CCCN(C(=O)c2cc(C)on2)C1 (stereo not drawn)	1.9	-6.6	11	-10	-2	-0.8%

High-throughput results: PubChem, National Center for Advancing Translational Sciences (NCATS)
